Source: PubChem
Cruzain inh Det: qHTS Assay for Promiscuous and Specific Inhibitors of Cruzain (with detergent) | Potency, µM, for inactives: max response, negative = inhibition, hits mostly inhibitors | purified cruzain, Z-FR-AMC fluorescence, 0.01% Triton | actives 0.43% (n = 200,000); active means well fitted curve in the direction sought with a large enough effect; inconclusive means small, poorly fitted or top-dose-only effect, or another doubt; inactive means no such curve, though single readings can be large; an effect the other way counts as inactive or inconclusive;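 further: plate controls were neutral wells for no effect and buffer without enzyme for full effect; nearly all actives have a fitted effect of over 40% in size; top concentration of the series not given in the record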
Target sequence (P25779 123-467 limits assumed): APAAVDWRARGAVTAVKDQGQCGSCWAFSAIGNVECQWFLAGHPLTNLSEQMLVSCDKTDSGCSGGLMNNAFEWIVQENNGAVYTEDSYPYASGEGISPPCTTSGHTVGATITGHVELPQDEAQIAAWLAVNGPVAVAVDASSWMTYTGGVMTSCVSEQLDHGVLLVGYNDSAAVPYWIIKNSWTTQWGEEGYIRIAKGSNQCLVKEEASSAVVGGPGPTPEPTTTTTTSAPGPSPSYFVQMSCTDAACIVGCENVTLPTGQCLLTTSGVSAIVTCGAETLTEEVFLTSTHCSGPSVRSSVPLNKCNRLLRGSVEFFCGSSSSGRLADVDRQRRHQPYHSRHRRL
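Sodium acetate buffer (100 mM, pH 5.5) containing 5 mM DTT and 0.01% Triton X-100 hosted 1.5 nM cruzain and test compound for 15 min at room temperature. Cleavage of 2 uM Z-FR-AMC was then tracked by fluorescence.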
LASV entry inh: qHTS for Inhibitors of binding or entry into cells for Lassa Virus | Lassa virus pseudotype entry inhibition, cell reporter; control for the full effect not named in the record | Potency, µM (doses to about 37.9 µM), for inactives: top-dose activity change, negative = inhibition, actives largely listed as inhibitors | actives 1.2% (n = 300,000) | AID 540256, 2011; active means well fitted inhibition curve with a large enough effect; inconclusive means small, poorly fitted or top-dose-only effect, or effect the other way; inactive means flat fitted curve, though single readings scatter; tested in HEK293 cells; further: on the % scale 0 is the no-effect control and ±100 the full control effect; nearly all actives have a fitted effect of over 50% in size; luciferase read-out
RE007 growth inh: qHTS Assay for Inhibitors of the HIV-1 protein Vpr; AID 651644, 2012; actives 0.21% (n = 360,000); S. pombe RE007 Vpr strain, BacTiter-Glo ATP luminescence, 24 h; control for the full effect not named in the record; Potency, µM (highest dose often 92.2 µM), inactives show at the highest dose activity change, negative = less growth; active = well fitted falling curve with a large enough effect; inconclusive = small, poorly fitted or top-dose-only effect; inactive = no such curve, though single readings can be large or run the other way;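 further: on the % scale 0 is the no-effect control and ±100 the full control effect; nearly all actives have a fitted effect of over 50% in size; the assay follows cell death caused by Vpr and the record does not say whether a fall means rescue or toxicity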
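Fission yeast strain RE007, carrying one chromosomally integrated HIV-1 vpr copy, was seeded at OD 0.01 in PMG+AL medium with 23 nL pinned compound. After 24 h at 30 °C and 99% humidity, viability was read by BacTiter-Glo luminescence.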
SARS PLpro yeast: qHTS of Yeast-based Assay for SARS-CoV PLP; S. cerevisiae expressing SARS-CoV PLpro, growth rescue; control for the full effect not named in the record; Potency, µM (highest dose often 32.9 µM), inactives show at the highest dose activity, positive = growth rescue; actives 0.19% (n = 330,000); AID 485353, 2010; further: 0% is about no effect; nearly all actives have a fitted effect of over 55% in size; growth read by luminescence after 48 h
MARV entry inh: qHTS for inhibitors of binding or entry into cells for Marburg Virus; Marburg virus pseudotyped entry inhibition, cell reporter; control for the full effect not named in the record; about a third of the inactives were read at about 46 µM; Potency, µM (titrated, usually from 37.8 µM), for the others: at the highest dose activity change, negative = inhibition, hits mostly inhibitors; actives 1.8% (n = 300,000); AID 540276, 2011; active = well fitted inhibition curve with a large enough effect; inconclusive = small, poorly fitted or top-dose-only effect, or effect the other way; inactive = flat fitted curve, though single readings scatter; tested in HEK293 cells; about a fifth of its hits are not listed in these tables; further: on the % scale 0 is the no-effect control and ±100 the full control effect; luciferase read-out
Cruzain inh noDet: qHTS Assay for Promiscuous and Specific Inhibitors of Cruzain (without detergent); purified cruzain, Z-FR-AMC fluorescence, no detergent; Potency, µM, for the others: max response, negative = inhibition, most hits filed as inhibitors; Cruzipain (Trypanosoma cruzi), P25779; actives 2.3% (n = 200,000); active means well fitted curve in the direction sought with a large enough effect; inconclusive means small, poorly fitted or top-dose-only effect, or another doubt; inactive means no such curve, though single readings can be large; an effect the other way counts as inactive or inconclusive;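 further: plate controls were enzyme without inhibitor for no effect and buffer without enzyme for full effect; nearly all actives have a fitted effect of over 40% in size; top concentration of the series not given in the record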
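Detergent-free condition (0.00005% Triton X-100) in acetate buffer pH 5.5 with DTT. 1.5 nM enzyme and compound were pre-mixed 15 min, then 2 uM Z-FR-AMC substrate added; reaction progress from fluorescence change between first and third reads (60 s).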
StopGo reporter: High Throughput Screening for Foot and Mouth Disease Virus Antivirals. human cells with a luciferase reporter of 2A StopGo recoding; control for the full effect not named in the record. Potency, µM (series often up to 57.9 µM), for the others: at the top dose signal change, negative = less light. actives 1.2% (n = 410,000). AID 1159524, 2015; active = well fitted falling curve with a large enough effect; inconclusive = small, poorly fitted or top-dose-only effect; inactive = no such curve, though single readings can be large or run the other way; tested in HEK293T cells; further: on the % scale 0 is the no-effect control and ±100 the full control effect; nearly all actives have a fitted effect of over 45% in size; luciferase light after 4 h
NS1 inh: qHTS Assay for Inhibitors of Influenza NS1 Protein Function | S. cerevisiae slowed by influenza A NS1, growth recovery by OD600 | AID 2326, 2010 | actives 0.4% (n = 270,000) | Potency, µM (series often up to 46.1 µM), without a hit: at the highest dose activity, positive = more growth; further: actives are rising curves; nearly all actives have a fitted effect of over 50% in size
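Recovery from NS1-induced slow growth read by OD600 in budding yeast switched to galactose assay medium (pH 6.0, -URA) at 1:100 dilution. Compound 23 nl per well; the matching strain lacking NS1 serves as control.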
* hit, by the source's call; u = inconclusive; x = not tested or not shown; [ ] = another dose, or the depositor's remark. Unless noted, the call rests on the fitted dose curve; in most records, active means well fitted rising curve with a large enough effect; inconclusive means small, poorly fitted or top-dose-only effect; inactive means no such curve, though single readings can be large or run the other way. Potency means the concentration at half of the fitted maximal effect.

Molecule,NS1 inh,MARV entry inh,LASV entry inh,SARS PLpro yeast,Cruzain inh noDet,StopGo reporter,RE007 growth inh,Cruzain inh Det
CCN(CC(=O)NCc1cccs1)C(=O)CN(C)S(=O)(=O)c1ccc(C)cc1,x,12%,10%,x,x,11%,-8%,x
Cc1ccc(N2C(=O)c3ccc(C(=O)N4CCN(Cc5ccccc5)CC4)cc3C2=O)cc1,-2%,-6%[46.1 µM],12%,0%,x,u,-1%,x
Cc1ccc2cccc(NC(=S)NC(=O)c3ccnn3C)c2n1,16µM*,u,u,u,u,-12%,-11%,-8.7%
CC(C)(C)n1nc2c(c1NC(=O)CCCc1ccccc1)CS(=O)C2 (stereo not drawn),10%,x,x,2%,-4%,-6%,-1%,0.8%
CC12C(=O)N(c3ccccn3)C(=O)C1C1C=CC2C1 (stereo not drawn),-9%,x,x,8%,5%,-8%,29%,2.6%
CCN1CCN(C(=O)c2cc(COc3ccc(F)cc3F)on2)[C@@H](C)C1=O,-10%,u,u,-4%,x,-21%,7%,x
C#CC[N+]1(CC#Cc2ccc(C)cc2)CCCCC1,5%,-1%[46.1 µM],11%,20µM*,1%,6%,-6%,2.2%
Cc1ccc(C)c(NC(=O)CSc2nc(-c3ccccc3Cl)nc3c2Cc2c(CO)cnc(C)c2O3)c1,x,x,-1%[46.1 µM],x,-3%,-22%,x,0.9%
CCc1c(O)cc2n(c1=O)-c1ccccc1C2(C)C,1%,7%,0%,8%,-5%,4%,5%,-1.8%
COc1ccc(CCNC(=O)c2cc(S(=O)(=O)N3CCCCC3)c[nH]2)cc1OC,-5%,x,x,-1%,x,-27%,-4%,x
O=C(NCCCn1ccnc1)C(Cc1ccc([N+](=O)[O-])cc1)N1C(=O)c2ccccc2C1=O (stereo not drawn),4%,2%,u,-4%,-13%,0%,10%,-4.2%
COCc1cc(N2CCCC2)nc(-c2ccccc2)n1,x,0%[46.1 µM],3%,0%,x,-6%,-8%,x
Cc1nc(C)c(C(=O)OCC(=O)NCc2ccccc2Cl)s1,x,u,3%[46.1 µM],x,x,23%,19%,x
CC(C)Sc1n[nH]c2nc3c(c(=O)n12)C1(CCCC1)Cc1ccccc1-3,12%,-1%,x,1%,u,x,x,-5.6%
Cc1csc(NC(=O)c2ccc(C)s2)n1,x,u,u,x,x,17%,u,x
C=CCNC(=O)COc1ccc(Oc2ccccc2)cc1,x,0%[46.1 µM],0%,-4%,x,7%,31%,x
CCOC(=O)C1CCCN(C/C=C/c2ccccc2)C1 (stereo not drawn),8%,-24%[46.1 µM],16%[46.1 µM],3%,x,-8%,-2%,x
O=C(Nc1nc2ccccc2s1)c1ccc(F)cc1,0%,x,x,-5%,x,6%,-13%,x
CCCCOC(=O)Cn1c(=O)oc2ccc(C)cc21,-2%,x,x,3%,-7%,-20%,-2%,-1.2%
Cc1ccc(C(=O)NCC(=O)OCC(=O)c2ccc(C)c([N+](=O)[O-])c2)cc1,2%,1%,-12%,-2%,13µM*,-23%,-6%,16µM*
N/C(=N\N=C\c1cccs1)SC1CC(=O)N(c2ccc(Br)cc2)C1=O (stereo not drawn),6%,-28%[46.1 µM],-20%,2%,x,-1%,3%,x
CN(C)c1ccc(NC(=O)Cn2ncn3c(cc4ccccc43)c2=O)cc1,19%,5%,-1%,4%,-16%,x,-1%,-1.9%
CCCc1nc2ccc(NC(C)=O)cc2c(=O)n1Cc1ccc(Cl)cc1,x,u,6%,-2%,x,14%,-1%,x
CCC(C)(C)n1nnnc1C(c1cccs1)N1CCCCC1 (stereo not drawn),-4%,x,x,-1%,x,-3%,-10%,x
COc1ccccc1C1CC(=O)Oc2ccc(C(C)(C)C)cc21 (stereo not drawn),x,x,x,-52%,3%,-21%,-26%,-0.3%
COc1ccc(N=Cc2[nH]c3ccccc3c2O)cc1,x,-18%,19%,2%,x,23%,-8%,x
Cc1cccc(NC(=O)CSc2nc3ccccc3nc2N2CCCC2)c1C,-3%,x,x,6%,x,-29%,-2%,x
Cc1cc(C)nc(NNC2=CC(=[N+]3CCCCC3)CC(C)(C)C2)n1,x,u,-3%,-3%,x,-8%,-10%,x
CC(=O)c1ccc(NC(=O)c2ccc(CSc3ccccc3)o2)cc1,-58%,-5%,u,-57%,-4%,-28%,-3%,-11%
CCn1c(CSCc2ccc(C)cc2)nnc1SCC(=O)NCc1ccccc1,-7%,9%,0%,12%,28%,-3%,15%,-4.9%
CC1CCN(C(C(=O)Nc2ccc3c(c2)OCO3)c2ccccc2)CC1 (stereo not drawn),-23%,x,x,-2%,-4%,-12%,-5%,2.8%
Cc1cccc(NC(=S)NCc2ccc(F)cc2)c1,-22%,-11%,u,7%,-16%,53%[activator],3%,-6.3%
COc1cccc(CN2CC(C(=O)NCc3cnn(C)c3)CCC2=O)c1 (stereo not drawn),-3%,24%,u,-10%,x,4%,-5%,x
Cc1oc2ccc(NS(=O)(=O)c3ccc(C(C)(C)C)cc3)cc2c1C(=O)Nc1ccccc1,39%,u,u,-20%,-7%,-21%,1%,-14%
CCCN(CC(=O)Nc1ccccc1C)C(=O)c1ccc(N2CCCC2)c([N+](=O)[O-])c1,x,-13%,u,-7%,x,28%,13%,x
Cc1cc(=O)n(CC(=O)NC2CC2)c2c1c(C)nn2-c1ccccc1,1%,x,x,0%,x,0%,-10%,x
CCS(=O)(=O)c1ccc(C(=O)N2CCN(c3nc4c(OC)ccc(C)c4s3)CC2)cc1,x,x,-17%[46.1 µM],x,u,0%,x,-9.3%
COc1ccccc1/C=C(/NC(=O)c1ccccc1)C(=O)NCCCn1ccnc1,3%,x,x,7%,x,25%,0%,x
O=C(CCCn1c2ccccc2c(=O)c2ccccc21)Nc1cccc(Cl)c1,x,x,u,x,-11%,u,x,-4.0%
CCOC(=O)C(CCCCOc1cccc(CC)c1)C(=O)OCC,0%,-1%,u,10%,10%,-24%,-1%,-4.6%
O=C(CO/N=C/c1c(Cl)cccc1Cl)NNC(=O)c1cccc(Cl)c1,1%,11%,23%,1%,x,11%,-13%,x
Cc1cc(C(=O)c2ccccc2)c(NC(=O)CCl)s1,-43%,1µM*,-16%,4%,7%,u,-4%,-4.9%
CCC(Sc1nnc2c(n1)[nH]c1ccccc12)C(=O)Nc1nnc(C(C)C)s1 (stereo not drawn),x,14%[46.1 µM],-4%[46.1 µM],x,19%,14%,x,-2.3%
COc1cccc(C2(O)CCN(C(=O)C3CC3)CC2)c1,7%,-4%,-8%,0%,5%,-25%,-3%,6.4%
CN(C(=O)c1ccc2c(Cl)c3c(nc2c1)CCC3)c1ccccc1,-37%,4%,-4%,-7%,16%,28%,2%,-6.7%

5 entries from above, with values under each structure.
Each structure is followed by: NS1 inh | MARV entry inh | LASV entry inh | SARS PLpro yeast | Cruzain inh noDet | StopGo reporter | RE007 growth inh | Cruzain inh Det
> COc1cccc(C2(O)CCN(C(=O)C3CC3)CC2)c1
    7% | -4% | -8% | 0% | 5% | -25% | -3% | 6.4%
> CC1CCN(C(C(=O)Nc2ccc3c(c2)OCO3)c2ccccc2)CC1 (stereo not drawn)
    -23% | x | x | -2% | -4% | -12% | -5% | 2.8%
> COc1cccc(CN2CC(C(=O)NCc3cnn(C)c3)CCC2=O)c1 (stereo not drawn)
    -3% | 24% | u | -10% | x | 4% | -5% | x
> Cc1cccc(NC(=S)NCc2ccc(F)cc2)c1
    -22% | -11% | u | 7% | -16% | 53%[activator] | 3% | -6.3%
> CN(C(=O)c1ccc2c(Cl)c3c(nc2c1)CCC3)c1ccccc1
    -37% | 4% | -4% | -7% | 16% | 28% | 2% | -6.7%

(listing goes on)
Molecule,NS1 inh,MARV entry inh,LASV entry inh,SARS PLpro yeast,Cruzain inh noDet,StopGo reporter,RE007 growth inh,Cruzain inh Det
Cc1cc(NC(=O)c2ccccc2)ccc1NC(=O)c1ccccc1Cl,8%,x,x,4%,x,26%,1%,x
COc1ccc(C(=O)C2CCCN(Cc3cccn3-c3ccccn3)C2)c(OC)c1 (stereo not drawn),-5%,u,u,0%,x,u,-19%,x
COc1ccc(C(C(=O)NC2CCCC2)N(CCCO)C(=O)c2snc(C(N)=O)c2N)cc1 (stereo not drawn),0%,3%[46.1 µM],0%,22%,x,-6%,8%,x
O=S(c1ccsc1)c1ccsc1,-2%,3%,2%,-3%,1%,1%,32%,4.6%
CCN(CC)C(=O)COC(=O)C1=NN(c2cc(C)ccc2C)C(=O)CC1,9%,9%[46.1 µM],10%,2%,x,8%,-2%,x
Nc1c(C(=O)Nc2ccccc2)nnn1-c1ccc2c(c1)OCCO2,-51%,u,u,-29%,x,-51%,-23%,x
O=C(CSc1ccc(Cl)cc1)NNC(=O)c1cccnc1,x,10%[46.1 µM],14%,9%,x,0%,-18%,x
O=C(O)c1cc(-c2ccco2)nn1-c1cccc(Cl)c1,8%,-19%[46.1 µM],14%,7%,x,4%,-15%,x
CCOC(=O)c1ccc2nc(NC(=O)C(C)C)sc2c1,-32%,x,x,-27%,21%,10%,13%,-10%
COc1ccccc1/C=N\Nc1ccccc1[N+](=O)[O-],-3%,u,u,0%,x,29%,0%,x
CC(C)c1ccccc1NC(=O)C1CC(=O)N(C2CCCC2)C1 (stereo not drawn),-6%,0%[46.1 µM],26%[46.1 µM],2%,x,-15%,0%,x
